Screens as filed in PubChem.
Ec RNAP inh: Escherichia coli RNA polymerase inhibition | P0A8V2 | E. coli RNA polymerase, fluorescence transcription assay | inhibition, %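 (tested at 10 µM)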 | 0.2% of 62,000 active; in the data active means inhibition above about 20%;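 further: 0% = enzyme without compound and 100% = no enzyme blank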
Hsp90 block: displaces geldanamycin probe from tumor Hsp90. inhibition, % at 30 µM. AID 429. 0.35% of 64,000 active. NCI-N417 lysate Hsp90, Cy3B-geldanamycin FP displacement;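 active means inhibition above 50%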;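 further: 0% = tracer plus lysate wells and 100% = tracer alone without lysate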
HER2 expr 66K: Her2 kinase expression inhibition | P04626 | SKBR-3 HER2 protein level, AlphaScreen, 18-24 h; active compounds read low | HER2 level % of control, % at 10 µM | 0.69% of 65,000 active;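 active means HER2 level under 5% of the carrier-only control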;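 further: 100% = DMSO carrier and 0% = 500 nM PU-H71 HSP90 inhibitor; lower value means stronger loss of Her2 protein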
NADH enzymes: inhibition of NAD/NADH coupling enzymes, library profiling. coupled PK/LDH NADH assays, four targets. IC50, µM (top dose mostly 10 µM), inactives show at the highest dose inhibition. 0.02% of 65,000 active. AID 774;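 active means single-dose screening hits from any of four coupled enzyme assays that gave an IC50 when retested across doses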;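 further: the DPM-DC format reads NADH fluorescence rather than 340 nm absorbance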
* hit, by the source's call; . = no result given; & = joins results of further samples; [ ] = dose if it differs, or a comment.

Value order: Ec RNAP inh	Hsp90 block	HER2 expr 66K	NADH enzymes
COc1ccc([C@@H]2Sc3ccccc3N(CCN(C)C)C(=O)[C@@H]2OC(C)=O)cc1
    9.1	1.3&1.8	99.6	2.0%
O=C(O)c1cc(=O)c2c(OCC(O)COc3cccc4oc(C(=O)O)cc(=O)c34)cccc2o1
    5.7	0.7	106.2	2.0%
CC[N+](C)(C)c1cccc(O)c1
    9.7	0.7&0.1	109.5	1.0%
CCCC(=O)Nc1ccc(OCC(O)CNC(C)C)c(C(C)=O)c1 (stereo not given)
    2.4	-0.9	98.0	4.0%
CN/C(=C/[N+](=O)[O-])NCCSCc1ccc(CN(C)C)o1
    7.4	-8.2	101.0	5.0%
Cc1ccc(S(=O)(=O)NC(=O)NN2CCCCCC2)cc1
    2.6	1.8&1.5	87.4	2.0%
CCn1cc(C(=O)O)c(=O)c2cc(F)c(N3CCNCC3)cc21
    11.0	3.5	91.7	4.0%[fluoresces]
CC[N+](C)(C)Cc1ccccc1Br
    7.0	-3.2&0.9	96.2	1.0%
CC1(C)S[C@@H]2[C@H](NC(=O)[C@H](N)c3ccccc3)C(=O)N2[C@H]1C(=O)O
    6.2	-0.9	110.0	3.0%
NCCS(=O)(=O)O
    .	-0.7	.	.
O=C(O)c1cc(-c2ccccc2)nc2ccccc12
    10.0	0.2&-1.0	93.7&94.4	2.0%&1.0%
Cc1cccc(CN2CCN(C(c3ccccc3)c3ccc(Cl)cc3)CC2)c1 (stereo not given)
    6.2	-0.9	103.2	2.0%
COC(=O)Nc1nc2ccc(C(=O)c3ccccc3)cc2[nH]1
    5.3	-3.7	102.2	4.0%
Cc1ncc([N+](=O)[O-])n1CCO
    12.5	2.4	89.4	3.0%
C[C@@H]1C[C@H]2[C@@H]3C[C@H](F)C4=CC(=O)C=C[C@]4(C)[C@@]3(F)[C@@H](O)C[C@]2(C)[C@@]1(O)C(=O)CO
    10.9	0.2	78.6	1.0%

Sorted by length of the SMILES (rising): some entries from above
Value order: Ec RNAP inh	Hsp90 block	HER2 expr 66K	NADH enzymes
Cc1ncc([N+](=O)[O-])n1CCO
    12.5	2.4	89.4	3.0%
Cc1ccc(S(=O)(=O)NC(=O)NN2CCCCCC2)cc1
    2.6	1.8&1.5	87.4	2.0%
COC(=O)Nc1nc2ccc(C(=O)c3ccccc3)cc2[nH]1
    5.3	-3.7	102.2	4.0%
CN/C(=C/[N+](=O)[O-])NCCSCc1ccc(CN(C)C)o1
    7.4	-8.2	101.0	5.0%
Cc1cccc(CN2CCN(C(c3ccccc3)c3ccc(Cl)cc3)CC2)c1 (stereo not given)
    6.2	-0.9	103.2	2.0%
COc1ccc([C@@H]2Sc3ccccc3N(CCN(C)C)C(=O)[C@@H]2OC(C)=O)cc1
    9.1	1.3&1.8	99.6	2.0%
C[C@@H]1C[C@H]2[C@@H]3C[C@H](F)C4=CC(=O)C=C[C@]4(C)[C@@]3(F)[C@@H](O)C[C@]2(C)[C@@]1(O)C(=O)CO
    10.9	0.2	78.6	1.0%

This is a subset. The share of hits here may be higher or lower than overall.
